PABP FP inh = PABP poly(A) RNA binding inhibitors, primary screen, biochemical, fluorescence polarization, uHTS. Polyadenylate-binding protein 1 (Homo sapiens), P11940. inhibition, % at 35 µM. actives 1% (n = 290,000). AID 2014, 2009;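 active = 50% or more with normal probe brightness, or confirmed in later tests; inconclusive = above 50% with abnormal brightness, or retests that disagree; inactive = below 50% or failed in later tests; about a fifth of its hits are not listed in these tables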;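 note: calls also rest on retests at 20 µM and on dose response follow-up; controls were probe without protein and protein plus probe with vehicle; some compounds called inactive have numbers as strong as hits; many hits fall short of the cut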
Target sequence (P11940 whole entry, looked up): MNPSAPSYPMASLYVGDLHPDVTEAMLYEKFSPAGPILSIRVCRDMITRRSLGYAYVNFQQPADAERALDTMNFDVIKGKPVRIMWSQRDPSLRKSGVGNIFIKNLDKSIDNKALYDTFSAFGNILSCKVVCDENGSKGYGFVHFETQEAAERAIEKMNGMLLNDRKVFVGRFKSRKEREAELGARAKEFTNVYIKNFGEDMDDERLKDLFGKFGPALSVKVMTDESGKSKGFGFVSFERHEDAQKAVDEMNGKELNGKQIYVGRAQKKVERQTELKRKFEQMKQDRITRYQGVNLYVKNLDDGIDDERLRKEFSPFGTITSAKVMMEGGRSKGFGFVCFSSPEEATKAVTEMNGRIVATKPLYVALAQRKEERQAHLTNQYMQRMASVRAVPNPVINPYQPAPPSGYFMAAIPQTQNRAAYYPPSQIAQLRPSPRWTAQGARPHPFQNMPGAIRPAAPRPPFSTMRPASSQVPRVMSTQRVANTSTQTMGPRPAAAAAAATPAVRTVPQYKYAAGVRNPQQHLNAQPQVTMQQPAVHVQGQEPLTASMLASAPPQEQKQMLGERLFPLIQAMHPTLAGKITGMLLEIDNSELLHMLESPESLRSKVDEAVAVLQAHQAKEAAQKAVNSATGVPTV
UUG fidelity = modulators of yeast start codon fidelity, primary screen, whole organism, S. cerevisiae, single point, plate reader; actives 0.13% (n = 350,000); activity score, % at 18.7 µM; S. cerevisiae UUG-firefly luciferase reporter, luminescence/redox ratio;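 active = replicate mean at a twofold rise or more, about +100% in these data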;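 note: firefly luciferase made from a UUG start codon reports start codon fidelity; reporter light over untreated wells divided by growth signal over untreated wells; some hits fall short of that in this replicate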
Env fusion inh = inhibitors of HIV-1 Env-driven cell-cell fusion, primary screen, HeLa-JRFL effector, CEM21 target cells, luciferase; inhibition, % at 12.3 µM; actives 1.1% (n = 360,000); AID 651610, 2012;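 active = mean replicate inhibition score of at least 50 and every replicate individually at or above 50; inconclusive = only one of the two criteria met; inactive = mean below 50 and not all replicates reaching 50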;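 note: 0% = plate neutral controls and 100% = maraviroc near 300 nM; one replicate is shown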
MT1-MMP act inh = blockers of MT1-MMP proenzyme processing, primary screen, HT1080 RFP-PRO-GFP cells, GFP/RFP fluorescence; GFP/RFP ratio fluorescence, overnight; percent of plate control window, DMSO zero; actives 0.061% (n = 360,000); AID 651647, 2012; Matrix metalloproteinase-14 (Homo sapiens), P50281; GFP/RFP ratio change, % at 20 µM;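 active = GFP/RFP ratio change of at least 30% with cell ATP level not reduced by more than half and red fluorescence within 50% of control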; note: strong numbers were not always called active
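Test system: HT1080 cells expressing an RFP-PRO-GFP fluorescent reporter construct / Compound dosing: single-point 20 µM compound, 1% DMSO / Schedule: cells overnight before dosing, compound overnight, 37 °C, 5% CO2 / Evaluation: GFP/RFP fluorescence ratio / Control set: DMSO and RFP-L50D-GFP cell wells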
Rce1 inhib = yeast Rce1p protease inhibitors, primary screen, biochemical, fluorescence, cell-free homogeneous. actives 0.27% (n = 290,000). AID 2563, 2010. calls only. yeast membranes, quenched prenylated peptide cleavage fluorescence;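 active = fall in fluorescence gain of 50% or more versus controls, with final raw signal at or below 3038400; inconclusive = same 50% fall but final raw signal above 3038400; inactive = fall in fluorescence gain under 50%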;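 note: plate controls were neutral control wells for no effect and wells lacking membranes for full effect; tested at 10 µM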
Target sequence (Q03530 whole entry, looked up): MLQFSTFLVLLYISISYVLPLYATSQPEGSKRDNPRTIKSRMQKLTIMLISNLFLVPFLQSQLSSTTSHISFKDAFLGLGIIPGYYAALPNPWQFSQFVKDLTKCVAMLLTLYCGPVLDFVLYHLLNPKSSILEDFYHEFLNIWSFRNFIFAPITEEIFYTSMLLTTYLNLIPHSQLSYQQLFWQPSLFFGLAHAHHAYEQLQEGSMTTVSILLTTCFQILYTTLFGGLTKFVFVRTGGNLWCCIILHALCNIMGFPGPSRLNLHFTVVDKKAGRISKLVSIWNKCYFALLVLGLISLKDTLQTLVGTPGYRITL
eIF4H FP inh = human eIF4H binding inhibitors, primary screen, translation initiation inhibitor project, biochemical, uHTS, fluorescence polarization; Eukaryotic translation initiation factor 4H (Homo sapiens), Q15056; inhibition, % at 35 µM; actives 0.94% (n = 290,000); eIF4H fluorescence polarization binding assay; AID 2012, 2009;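 active = 50% or more with normal probe brightness, or confirmed in later tests; inconclusive = above 50% with abnormal brightness, or retests that disagree; inactive = below 50% or failed in later tests; about a fifth of its hits are not listed in these tables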;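 note: calls also rest on retests at 20 µM and on dose response follow-up; 0% = protein and probe with vehicle and 100% = probe without protein; strong numbers were not always called active; many hits fall short of the cut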
CSC inhib = cancer stem cell viability inhibitors, primary screen, luminescence; AID 2717, 2010; actives 1.1% (n = 300,000); inhibition, % at 7.5 µM; cancer stem cell-like cells viability;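 active = mean at 75% or more and at least half the replicates too; inconclusive = mean and replicates disagree; tested in HMLE shEcad cells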;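 note: 0% = median of negative and 100% = median of positive control wells; the first replicate is given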
eIF4H FP inh retest = also measured in eIF4H FP inh; calls as there; inhibition, %; compound at 20 µM; confirmation average;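 mean of two retest wells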
PABP FP inh retest = further read-out of PABP FP inh, marked with its call; inhibition, %; compound at 20 µM; confirmation repeats;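 mean of two retest wells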
MT1-MMP act inh RFP = further read-out of MT1-MMP act inh, marked with its call; RFP signal change, %; measured here: RFP expression control read;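 0 = vehicle wells; hits needed this value within 50% of zero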
* marks the source's active call; other numbers are inactive results; & = joins results of further samples. These rows are one share of the data (hit frequency here may not be typical).

`COc1cc(C2CC(=O)Nc3ccccc3S2)cc(OC)c1OC` (centres undefined) gave PABP FP inh -4, UUG fidelity -7, Env fusion inh 24, MT1-MMP act inh 3, Rce1 inhib inactive, eIF4H FP inh -6, CSC inhib 3 and MT1-MMP act inh RFP 2.
Fc1ccc(COc2ccccc2-c2ccnc3ncnn23)cc1 was read as PABP FP inh -8, UUG fidelity -24, Env fusion inh 15, MT1-MMP act inh 2, Rce1 inhib inactive, eIF4H FP inh -4, CSC inhib 6 and MT1-MMP act inh RFP 1.
For C=CCOc1ccccc1/C=N/n1nnnc1N the results were PABP FP inh -7, UUG fidelity -12, Env fusion inh -22, MT1-MMP act inh -5, Rce1 inhib inactive, eIF4H FP inh 4, CSC inhib -2 and MT1-MMP act inh RFP -4.
COc1ccc(NC2CCCN(C(=O)c3ccccc3-c3ncc[nH]3)C2)cc1 (centres undefined) was read as UUG fidelity -8, Env fusion inh -4, MT1-MMP act inh 4 and MT1-MMP act inh RFP 3.
Screening Cc1cc(C)nc(NC(C)(C)C(=O)O)n1 returned PABP FP inh -3, Env fusion inh -15, MT1-MMP act inh -4, Rce1 inhib inactive, eIF4H FP inh -11, CSC inhib -8 and MT1-MMP act inh RFP -5.
For CN(C)c1cccc(C(=O)NNC(=O)CSc2ccccc2)c1 the results were PABP FP inh -3, UUG fidelity -15, Env fusion inh -9, MT1-MMP act inh -3, Rce1 inhib inactive, eIF4H FP inh -3 and MT1-MMP act inh RFP 1.
`Cc1cccc(C(c2c(C)nn(-c3ccccc3)c2N)c2c(C)nn(-c3ccccc3)c2N)c1` gave PABP FP inh 12, MT1-MMP act inh -6, Rce1 inhib inactive, eIF4H FP inh 2, CSC inhib -26 and MT1-MMP act inh RFP -6.
Cc1noc(C)c1NC(=O)N(C)C[C@@H]1Oc2ncc(C#CC3CC3)cc2C(=O)N([C@@H](C)CO)C[C@@H]1C was read as UUG fidelity -10&2&6, Env fusion inh -14, MT1-MMP act inh 0 and MT1-MMP act inh RFP 5.
CC(/C=N/n1c(-c2ccco2)n[nH]c1=S)=C\c1ccco1 was read as PABP FP inh -4, Env fusion inh -1, MT1-MMP act inh 1, Rce1 inhib inactive, eIF4H FP inh 106, CSC inhib -10, eIF4H FP inh retest -10, PABP FP inh retest 10 and MT1-MMP act inh RFP 6.
`CCCCOc1ccc(/C=C/C(=O)N(CC)CC(=O)Nc2ccc3c(c2)OCCO3)cc1OC` gave UUG fidelity -32, Env fusion inh -13, MT1-MMP act inh -4, Rce1 inhib inactive, CSC inhib -8 and MT1-MMP act inh RFP -5.
For O=C(CC(C(=O)O)c1ccccc1)Nc1cccc2ccccc12 (centres undefined) the results were PABP FP inh -2, MT1-MMP act inh 4, Rce1 inhib inactive, eIF4H FP inh 3, CSC inhib 3 and MT1-MMP act inh RFP 5.
Cc1nnc(SCC(=O)N2CCOCC2)c2ccccc12 was read as PABP FP inh 1, UUG fidelity -26, Env fusion inh -25, MT1-MMP act inh 2, Rce1 inhib inactive, eIF4H FP inh -7, CSC inhib 4 and MT1-MMP act inh RFP 1.
Nc1ccc(N2CCN(CCCCN3C(=O)C4CCCN4C3=O)CC2)cc1 (centres undefined) was read as PABP FP inh 8, Env fusion inh -4, MT1-MMP act inh 17, Rce1 inhib inactive, eIF4H FP inh inconclusive and MT1-MMP act inh RFP 14.
For O=C(NCCCN1CCOCC1)c1ccc(Cl)c([N+](=O)[O-])c1 the results were UUG fidelity -13, Env fusion inh 12, MT1-MMP act inh 2, Rce1 inhib inactive, CSC inhib -15 and MT1-MMP act inh RFP 6.
Screening CCN1CCN(S(=O)(=O)c2ccc(Cl)c(C(=O)N(C)Cc3ccco3)c2)CC1 returned UUG fidelity -16, Env fusion inh 1, MT1-MMP act inh 2 and MT1-MMP act inh RFP 1.
Screening O=C(NCC(=O)N1CCOCC1)c1ccc(Br)o1 returned UUG fidelity -14, Env fusion inh -304, MT1-MMP act inh 1, Rce1 inhib inactive, CSC inhib -8 and MT1-MMP act inh RFP -3.
For NC(=O)c1nsc(C(=O)N(c2cccc(O)c2)C(C(=O)NC2CCCC2)c2ccc(Cl)cc2)c1N (centres undefined) the results were PABP FP inh -7, UUG fidelity -4, Env fusion inh -1, MT1-MMP act inh -5, Rce1 inhib inactive, eIF4H FP inh -5, CSC inhib 8 and MT1-MMP act inh RFP -4.
For CCN(CC)C(=O)C1CCN(Cc2ccc(OCc3ccccc3)cc2)CC1 the results were PABP FP inh -1, UUG fidelity -13, Env fusion inh 11, MT1-MMP act inh -1, Rce1 inhib inactive, eIF4H FP inh 6, CSC inhib 17 and MT1-MMP act inh RFP 0.
Screening Cc1ccc(-c2nc(C=Nc3ccccc3)c(O)o2)cc1 returned PABP FP inh 7, Env fusion inh -52, MT1-MMP act inh 0, Rce1 inhib inactive, eIF4H FP inh 0 and MT1-MMP act inh RFP 1.
Cc1c(C(=O)OCC(=O)N2CC(C)CC(C)C2)oc2ccccc12 (centres undefined) was read as UUG fidelity -11, Env fusion inh -5, MT1-MMP act inh 2, Rce1 inhib inactive, CSC inhib -10 and MT1-MMP act inh RFP 2.
For CCOC(=O)Cc1csc(NC(=O)/C=C/c2ccco2)n1 the results were PABP FP inh 9, Env fusion inh -3, MT1-MMP act inh -3, Rce1 inhib inactive, eIF4H FP inh 23, CSC inhib -14 and MT1-MMP act inh RFP -6.
C/C(=N\NC(=O)Cc1cccn1C)c1ccco1 was read as PABP FP inh 3, UUG fidelity -3, Env fusion inh 6, MT1-MMP act inh 0, Rce1 inhib inactive, eIF4H FP inh 13, CSC inhib -3 and MT1-MMP act inh RFP 0.
For CN(C(=O)CC1C(=O)NCCN1Cc1ccccc1F)C1CCOCC1 (centres undefined) the results were PABP FP inh 14, UUG fidelity -8, MT1-MMP act inh 0, Rce1 inhib inactive, eIF4H FP inh 1, CSC inhib 11 and MT1-MMP act inh RFP 2.
For COc1ccc(OC)c(NC(=O)COC(=O)[C@H](Cc2ccccc2)NC(=O)c2ccco2)c1 the results were UUG fidelity -2, MT1-MMP act inh -5, CSC inhib -24 and MT1-MMP act inh RFP 0.
Screening Cc1ccc(SC(C)c2nc(-c3ccncc3)no2)cc1 (centres undefined) returned PABP FP inh -5, UUG fidelity -20, MT1-MMP act inh -4, Rce1 inhib inactive, eIF4H FP inh 4, CSC inhib -9 and MT1-MMP act inh RFP -15.
O=C(/C=C/c1ccc(F)cc1)Nc1ccc(S(=O)(=O)N2CCOCC2)cc1 was read as PABP FP inh 0, UUG fidelity -17, Env fusion inh 12, MT1-MMP act inh 3, Rce1 inhib inactive, eIF4H FP inh 7, CSC inhib 2 and MT1-MMP act inh RFP -4.
COC(C[C@H](O)C[C@H](O)[C@H](C)OCc1ccccc1)OC was read as PABP FP inh 8, UUG fidelity -16, Env fusion inh 1, MT1-MMP act inh 4, eIF4H FP inh 0, CSC inhib -8 and MT1-MMP act inh RFP 2.
`CCN(CC)C(=O)c1ccc(-c2nnc(Nc3cccc(O)c3)c3ccccc23)cc1` gave PABP FP inh 17, UUG fidelity 2, Env fusion inh 6, MT1-MMP act inh 2, Rce1 inhib inactive, eIF4H FP inh -2, CSC inhib -3 and MT1-MMP act inh RFP -5.
For COCCN1C(=O)N[C@@H](c2cccc(C(F)(F)F)c2)[C@H](C(C)=O)[C@H]1C the results were UUG fidelity 2, Env fusion inh 4, MT1-MMP act inh 2, Rce1 inhib inactive, CSC inhib -2 and MT1-MMP act inh RFP -1.
COC(=O)C1C(O)=C(C=NC2CCCCC2)C(=O)CC1(C)C (centres undefined) was read as PABP FP inh 9, UUG fidelity -7, MT1-MMP act inh 3, Rce1 inhib inactive, eIF4H FP inh 0, CSC inhib 6 and MT1-MMP act inh RFP 1.
Screening Cc1ccc(-c2ccc(C)c(N)c2C)c(C)c1N returned PABP FP inh -6, Env fusion inh -1, MT1-MMP act inh 5, Rce1 inhib inactive, eIF4H FP inh -17, CSC inhib -14 and MT1-MMP act inh RFP 4.
For CCN=C1NN=C(c2cc(C)n(CCc3ccccc3)c2C)CS1 the results were PABP FP inh 0, Env fusion inh 21, MT1-MMP act inh -2, eIF4H FP inh 14 and MT1-MMP act inh RFP 4.
Screening CCCCCC(CC(=O)NO)C(=O)NC(C(=O)N1CCCC1CO)C(C)C (centres undefined) returned UUG fidelity -1, Env fusion inh -8, MT1-MMP act inh -8, CSC inhib -13 and MT1-MMP act inh RFP -11.
Screening CCc1ccc(C(=O)COC(=O)c2ccc(Cl)nc2)cc1 returned PABP FP inh 7, Env fusion inh 0, MT1-MMP act inh 6, Rce1 inhib inactive, eIF4H FP inh 5, CSC inhib -14 and MT1-MMP act inh RFP 2.
CCOC(=O)C1(C)C=C(Nc2ccc(C)cc2)C(=O)N1c1ccc(C)cc1 (centres undefined) was read as PABP FP inh 8, UUG fidelity -22, Env fusion inh -14, MT1-MMP act inh 0, Rce1 inhib inactive, eIF4H FP inh 3, CSC inhib -4 and MT1-MMP act inh RFP 3.
`CC1CCCCN1S(=O)(=O)c1ccc2c(c1)CCN2C(=O)C1CCC1` (centres undefined) gave PABP FP inh -4, UUG fidelity -1, MT1-MMP act inh 7, Rce1 inhib inactive, eIF4H FP inh -2, CSC inhib 1 and MT1-MMP act inh RFP -1.
Cc1ccc(C[n+]2cc(-c3ccc(Cl)cc3)n3c2CCC3)cc1 was read as PABP FP inh -1, UUG fidelity -7, Env fusion inh 23, MT1-MMP act inh -8, Rce1 inhib inactive, eIF4H FP inh 7, CSC inhib 19 and MT1-MMP act inh RFP -26.
For Cc1nnc(SCC(=O)Nc2nc(-c3ccc(F)cc3)cs2)[nH]c1=O the results were PABP FP inh 8, Env fusion inh 5, MT1-MMP act inh -4, Rce1 inhib inactive, eIF4H FP inh -1, CSC inhib -6 and MT1-MMP act inh RFP -4.
Screening Cc1cc(NC(=O)CSc2nc3ccsc3c(=O)n2NC(=O)c2ccccc2)no1 returned PABP FP inh 4, UUG fidelity -14, Env fusion inh -24, MT1-MMP act inh 5, eIF4H FP inh -2, CSC inhib 8 and MT1-MMP act inh RFP 1.
`Cc1ccc(-c2[nH]c(=S)[nH]c(=O)c2C#N)cc1` gave PABP FP inh 6, UUG fidelity -20, Env fusion inh 6, MT1-MMP act inh -1, Rce1 inhib inactive, eIF4H FP inh -2, CSC inhib 10 and MT1-MMP act inh RFP 1.
Screening Cc1ccc(CNC(=S)N2CCOCC2)cc1 returned PABP FP inh 0, UUG fidelity -18, Env fusion inh -6, MT1-MMP act inh 1, Rce1 inhib inactive, eIF4H FP inh -2, CSC inhib 2 and MT1-MMP act inh RFP 3.
Screening O=C(NCCc1ccccc1)C1CCN(S(=O)(=O)N2CCC3(CC2)OCCO3)CC1 returned PABP FP inh 11, UUG fidelity 1, Env fusion inh -19, MT1-MMP act inh 4, Rce1 inhib inactive, eIF4H FP inh -2, CSC inhib -14 and MT1-MMP act inh RFP -1.

Screening data as filed in PubChem BioAssay.
